Mtb growth: M. tuberculosis H37Rv growth inhibitors, H37Rv strain (AID 1626); M. tuberculosis H37Rv growth inhibition; higher % means a stronger effect; one-dose inhibition, % at 10 µM; IC50 in µM for titrated hits; 0.95% of 220,000 active;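 active = confirmed in a dose series; inconclusive = inhibition above 80% but not taken into the dose series; inactive = below 80% or under 30% at every dose of the series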;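 note: bacteria incubated seven days before Alamar blue readout; 0% = bacteria only wells and 100% = bacteria with antibiotic wells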
RecA intein inh: blocks M. tuberculosis RecA intein splicing; P9WHJ3; cell-free RecA intein splicing, fluorescence; inhibition, %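 (about 9 µM by stock and volumes)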; 0.75% of 290,000 active; in the data active = inhibition above about 30%; inconclusive = no clear call, values can overlap the other calls;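 note: 0% = vehicle wells and 100% = reference inhibitor control wells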
Target sequence (P9WHJ3 whole entry, looked up): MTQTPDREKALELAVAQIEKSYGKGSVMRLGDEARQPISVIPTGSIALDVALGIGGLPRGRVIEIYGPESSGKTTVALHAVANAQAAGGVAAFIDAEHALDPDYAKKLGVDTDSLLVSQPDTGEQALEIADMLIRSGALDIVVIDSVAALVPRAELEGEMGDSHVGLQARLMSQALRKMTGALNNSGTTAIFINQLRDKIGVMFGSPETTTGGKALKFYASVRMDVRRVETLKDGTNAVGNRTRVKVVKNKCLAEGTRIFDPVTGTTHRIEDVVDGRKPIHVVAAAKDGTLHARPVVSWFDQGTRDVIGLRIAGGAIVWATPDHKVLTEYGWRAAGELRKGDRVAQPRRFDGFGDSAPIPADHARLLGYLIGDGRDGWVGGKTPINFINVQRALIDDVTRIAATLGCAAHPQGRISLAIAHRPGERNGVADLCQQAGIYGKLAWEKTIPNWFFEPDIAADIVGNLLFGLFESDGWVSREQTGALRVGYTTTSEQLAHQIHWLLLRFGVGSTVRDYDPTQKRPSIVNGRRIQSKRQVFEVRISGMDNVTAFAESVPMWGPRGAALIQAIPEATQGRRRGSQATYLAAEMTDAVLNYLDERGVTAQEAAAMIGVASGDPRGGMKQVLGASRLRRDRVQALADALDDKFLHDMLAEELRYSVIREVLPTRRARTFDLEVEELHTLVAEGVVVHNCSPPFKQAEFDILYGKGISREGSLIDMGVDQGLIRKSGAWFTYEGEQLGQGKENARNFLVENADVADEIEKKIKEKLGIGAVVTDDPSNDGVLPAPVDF
YopH inh: inhibitors of Yersinia enterocolitica YopH tyrosine phosphatase. 0.16% of 140,000 active. inhibition, %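 (about 10 µM by stock and volumes)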. fluorescence Ex485/Em525. AID 898;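 active = inhibition of 50% or more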;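 note: controls were vehicle for no effect and minimum signal wells for full effect; inactives centre near -20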
Arbovirus inh: antivirals against arbovirus infection; arbovirus infection cell-based antiviral screen; inhibition, % at 10 µM; 0.37% of 200,000 active; AID 1251;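 active = inhibition from about 30%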;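 note: bluetongue infection of BSR cells; cell survival read as ATP light after 72 h; 0% = infected wells without compound and 100% = uninfected wells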
Mtb betalactam: beta-lactam sensitization of Mtb H37Rv. M. tuberculosis H37Rv growth with meropenem, percent inhibition; hits of this screen are not shown here. inhibition, % at 25 µM. 0.27% of 330,000 active;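 active = about 74% or more and at least 40 points above the plate without the antibiotic, then above 30% in a dose series; inconclusive = first-round hits that could not be retested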;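 note: growth measured after seven days incubation then overnight dye step; 0% = bacteria only wells and 100% = bacteria with antibiotic; twin plates without the antibiotic show which effects depend on it; some results filed as inactive read as strong as hits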
Arbovirus inh repeat: recorded beside Arbovirus inh, whose call it bears; inhibition, %; measured here: 10K subset replicate screen; many hits read low in the repeat;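 first of two repeat runs on a subset; 0% = infected and 100% = uninfected wells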
Active calls of the source: *; ? = inconclusive; . = not tested or not shown; & = joins results of further samples.

The first 6 records, ahead of the listing:
SMILES	Mtb growth	RecA intein inh	YopH inh	Arbovirus inh	Mtb betalactam	others
CCSc1nc(C)c(CC)c(C)c1C(N)=O	11%	-6.8	-13	0	-14
CCn1c(SCC(=O)Nc2nc3ccc(OC)cc3s2)nc2c1c(=O)n(C)c(=O)n2C	2%	1.3	-21	-2	10
COc1ccc(CCCc2n[nH]c(=S)o2)cc1C	.	2.7	.	7	8
O=C(CSCC(=O)N1CCOCC1)Nc1ccccc1	-4%	-1.0	-23	12	-6	Arbovirus inh repeat=1
O=C(N/C(=C\c1ccc([N+](=O)[O-])cc1)C(=O)N1CCOCC1)c1cccc(Br)c1	.	-1.1	.	.	-1
COc1ccc(/C=N/NC(=O)CNC(=O)c2ccncc2)cc1	.	-1.8	.	.	-2

The whole of this part (from the top)
SMILES	Mtb growth	RecA intein inh	YopH inh	Arbovirus inh	Mtb betalactam	others
CCSc1nc(C)c(CC)c(C)c1C(N)=O	11%	-6.8	-13	0	-14
CCn1c(SCC(=O)Nc2nc3ccc(OC)cc3s2)nc2c1c(=O)n(C)c(=O)n2C	2%	1.3	-21	-2	10
COc1ccc(CCCc2n[nH]c(=S)o2)cc1C	.	2.7	.	7	8
O=C(CSCC(=O)N1CCOCC1)Nc1ccccc1	-4%	-1.0	-23	12	-6	Arbovirus inh repeat=1
O=C(N/C(=C\c1ccc([N+](=O)[O-])cc1)C(=O)N1CCOCC1)c1cccc(Br)c1	.	-1.1	.	.	-1
COc1ccc(/C=N/NC(=O)CNC(=O)c2ccncc2)cc1	.	-1.8	.	.	-2
CCOC(=O)C1CCN(S(=O)(=O)c2ccc(Br)c(OCC)c2)CC1	-9%	0.8	-19	2	-2
COc1ccc(/C(C)=N/NC(=O)CNC(=O)/C=C\c2ccccc2OC)c(OC)c1	.	-1.1	.	.	1
Cc1c(S(=O)(=O)N2CCCC(C)C2)c(=O)n(C)c(=O)n1C (centres undefined)	.	-2.1	.	.	-6
O=C(CSc1nc2ccccc2c(=O)n1CC1CCCO1)NCc1ccccc1 (centres undefined)	.	-1.2	.	.	9
O=C(Nc1ccc(OC(=O)c2cccs2)cc1)c1ccco1	24%	1.4	-10	0	80
CCOc1ccc(OCC(=O)OCC(=O)N2CCN(C(=O)c3ccco3)CC2)cc1	.	2.6	.	.	-10
CCOP(=O)(OCC)/C(C#N)=C/c1c[nH]c2ccccc12	-8%	-0.1	.	.	-3
COCC(C)n1c(C)cc(C(=O)Cn2nc(C(=O)O)c3ccccc3c2=O)c1C (centres undefined)	5%	2.0	.	5	15
O=C(CCn1ccc2cc(S(=O)(=O)N3CCCC3)ccc21)NCCc1ccccc1	.	-2.4	.	.	0
COc1ccc([N+](=O)[O-])cc1NC(=O)C(C)OC(=O)Cn1[nH]c(=O)c2ccccc2c1=O (centres undefined)	.	0.0	.	.	7
C=CCn1cc(C(=O)NCc2ccc3c(c2)OCO3)c(=O)c2cc(S(=O)(=O)N(CC)CC)ccc21	71%	1.5	-25	-5	.
CCCCSc1nnc(CCCCCNC(=O)OC(C)(C)C)o1	2%	0.0	-32	8	68
CC(C)CNC(=O)c1c(F)c(F)c(F)c(F)c1F	-3%	.	.	3	-4
CCS(=O)(=O)c1ccc2oc(Nc3ccccc3Br)nc2c1	-7%	-0.5	.	.	-4
CCn1c(C(C)NC(=O)Cc2ccccc2)nc2ccccc21 (centres undefined)	-7%	0.5	-63	3	0	Arbovirus inh repeat=-3
Cn1ncc(Cl)c(Oc2ccc(Cl)cc2)c1=O	4%	-1.9	-30	3	6
COCCNC(=O)C(c1cccc(OC)c1)N(C(=O)Cn1nnc2ccccc21)c1cccnc1 (centres undefined)	3%	1.4	-44	5	-17
Cc1ccc(N(CC(=O)Nc2ccc(-c3nc4ccc(C)cc4s3)cc2)S(C)(=O)=O)cc1	3%	-2.2	-15	-20	9
COc1ccccc1-c1nnc2sc(COc3ccc(F)cc3)nn12	.	5.6	-26	3	3
Cc1nc2ccc(NC(=O)c3nn(C(C)C)c(=O)c4ccccc34)cc2s1	10%	1.4	1	6	9
COc1cccc(C2NC(=O)NC(C)=C2C(=O)Nc2cccc(C)c2C)c1 (centres undefined)	-2%	5.0	-30	3	2
COCC1OS(=O)(=O)NC(CC(=O)SC(C)(C)C)C1C (centres undefined)	.	-1.6	.	.	-7
CC(C)Oc1ccc(C(=O)NCC(=O)O)cc1	-9%	-3.1	.	.	2
Cc1ccc(C(=O)C2C(c3cccs3)NC(=O)NC2(O)C(F)(F)F)cc1 (centres undefined)	-5%	-4.4	-23	5	3
[O-][n+]1cccc2c(Br)cc(Br)c(O)c21	-1%	6.2	.	9	100
Cc1cc(C(=S)N2CCOCC2)c(C)n1-c1ccc(Cl)cc1	0%	2.9	-12	12	5
C=CCc1c(C)nc(SC)nc1Nc1ccccc1	-1%	5.4	-7	0	15
N#CC(C#N)=C1C=C2C=C(N3CCCCCC3)CCC2CC1 (centres undefined)	3%	.	-31	-13	.
CCN(CC)CCNC(=O)CNC(=O)c1nn(-c2ccc(OC)cc2OC)c(=O)c2ccccc12	.	-1.3	.	.	-2
C#CCN(CC=C)C(=O)c1cccc(OC2CCN(S(C)(=O)=O)CC2)c1	.	-0.5	.	.	-2

4 compounds picked at random from the list so far:
SMILES	Mtb growth	RecA intein inh	YopH inh	Arbovirus inh	Mtb betalactam	others
N#CC(C#N)=C1C=C2C=C(N3CCCCCC3)CCC2CC1 (centres undefined)	3%	.	-31	-13	.
C=CCc1c(C)nc(SC)nc1Nc1ccccc1	-1%	5.4	-7	0	15
Cc1nc2ccc(NC(=O)c3nn(C(C)C)c(=O)c4ccccc34)cc2s1	10%	1.4	1	6	9
COCC1OS(=O)(=O)NC(CC(=O)SC(C)(C)C)C1C (centres undefined)	.	-1.6	.	.	-7

More results follow.
SMILES	Mtb growth	RecA intein inh	YopH inh	Arbovirus inh	Mtb betalactam	others
Cc1cc(C)n(-c2nc3ccccc3nc2N2CCN(S(=O)(=O)c3ccc(F)c(C)c3)CC2)n1	-10%	-1.0	-40	-2	-3
O=C(Cn1nnc2ccccc2c1=O)NC1CCCCC1	.	-0.3	.	.	0
CCCCCCCN1CCC(=O)N([C@H](CO)Cc2ccccc2)CC1	.	7.4	.	.	-5
COc1ccc(CCNC(=O)c2csc3c2CCCC3)cc1OC	1%	2.4	.	-3	9
Cc1ccc(OCCC(=O)OCC(=O)N2c3ccccc3NC(=O)C2(C)C)cc1	.	-0.1	.	.	-3
CCOc1ccc(NS(=O)(=O)c2cc3c4c(c2)C(C)C(=O)N4CCC3)cc1 (centres undefined)	.	0.9	.	.	-9
COC(=O)c1c(NC(=O)C2CC=CCC2C(=O)O)sc2c1CCCCC2 (centres undefined)	.	-1.4	.	.	10
COc1ccc(CNc2nc3c(c(=O)n(Cc4ccc(Br)cc4)c(=O)n3C)n2C)cc1	34%	-0.2	5	-5	19
Cc1ccccc1N1C(=O)CC(N2CCC(C(N)=O)CC2)C1=O (centres undefined)	-6%	0.8	5	9	5
CCN1CCN(CCOc2cccc(Cl)c2Cl)CC1	1%	-0.1	.	-16	-3
COc1ccccc1NC(=O)/C(=C/c1cccc([N+](=O)[O-])c1)c1ccccc1	-6%	11	-1	2	-1
O=C(NCc1ccc(Cl)cc1)c1ccc2nc[nH]c2c1	6%	-2.2	-11	-32	.
CSc1nc2cc(Oc3cccc(Cl)c3Cl)c(Cl)cc2[nH]1	11%&16%	11	.	-22	58
COC(=O)/C=C1\SC(=Nc2ccc(OC)cc2)NC1=O	7%	1.9	.	1	1
O=C(CCc1nnc(CCCCc2ccccc2)o1)N1CCC(N2CCCC2)CC1	0%	2.2	.	-3	2
O=C(OCN1C(=O)c2ccccc2C1=O)c1ccc(Cl)nc1	.	1.6	.	.	0
O=[N+]([O-])c1ccc(Sc2ccc(Cl)c(Cl)c2)nc1	-1%	4.7	-27	-17	-15
COc1ccc(-c2cc(C3CCN(Cc4ccc([N+](=O)[O-])cc4)CC3)[nH]n2)cc1	0%	1.9	.	-4	6
CCn1nc(C)c(CNC(=O)c2cc(COc3ccc(C)nc3)on2)c1C	.	0.2	.	.	10
COc1ccc(S(=O)(=O)NCCc2nnc3ccc(SCc4cccnc4)nn23)cc1	5%	1.6	.	-2	-3
O=C(CCCO)c1ccc2c(c1)OCCO2	-2%	-1.0	-29	1	5
CCN1CCN(c2nc3c(c(=O)[nH]c(=O)n3C)n2CCCSc2ncccn2)CC1	-7%	0.7	-1	17	-12
Cc1nn(C)cc1C=NCCOCc1ccccc1	-19%	5.4	12	11	-4
O=C(O)c1cccc(NCc2cccnc2)c1	2%	-2.7	-13	10	-4
O=C(CN1C(=O)S/C(=C\C=C\c2ccccc2)C1=O)N1CCCCC1	.	4.8	.	.	?
COC(=O)c1cc(NS(=O)(=O)c2ccc(N3CCOCC3)c(N)c2)cc(C(=O)OC)c1	-4%	-1.5	-19	4	1
CC(Oc1ccc(/C=N/NC(=O)Cc2cccc3ccccc23)cc1)C(=O)O (centres undefined)	-5%	-0.7	.	.	1
Cc1ccc(-c2cc(-c3ccc(F)cc3)c(C#N)c(N)n2)o1	5%	-26	-22	-4	2
CC(NC(=O)c1ccco1)C(=O)N(C)Cc1ccc(C(F)(F)F)cc1 (centres undefined)	.	1.4	.	.	4
COc1ccc(CC(=O)Nc2ccc3c(C)cc(=O)oc3c2)cc1OC	-6%	-3.0	-25	5	5
CCn1c2ccccc2c2cc(CN3CCN(S(=O)(=O)Cc4ccccc4)CC3)ccc21	7%	-1.5	-18	3	1
COc1ccccc1NS(=O)(=O)c1cccc(C(=O)N/N=C/c2ccc3c(c2)OCCO3)c1	-2%	0.4	-37	1	-2
O=C(c1cccc(Oc2ccc([N+](=O)[O-])cc2Cl)c1)N1CCCCC1	-3%	10	.	7	89
CC(C)OCCCNc1ncnc2c1[nH]c1ccccc12	-1%	-1.9	-61	-3	?
COc1ccc(N2CCN(C(=O)CNC(=O)c3ccco3)CC2)cc1	.	-3.7	.	.	-9
COc1nc(C)cc(C)c1S(=O)(=O)c1ccccc1	.	-0.7	.	.	-1

Not a retest: entries from further up.
SMILES	Mtb growth	RecA intein inh	YopH inh	Arbovirus inh	Mtb betalactam	others
O=C(CN1C(=O)S/C(=C\C=C\c2ccccc2)C1=O)N1CCCCC1	.	4.8	.	.	?
COC(=O)c1cc(NS(=O)(=O)c2ccc(N3CCOCC3)c(N)c2)cc(C(=O)OC)c1	-4%	-1.5	-19	4	1
CC(Oc1ccc(/C=N/NC(=O)Cc2cccc3ccccc23)cc1)C(=O)O (centres undefined)	-5%	-0.7	.	.	1

Next compounds.
SMILES	Mtb growth	RecA intein inh	YopH inh	Arbovirus inh	Mtb betalactam	others
CCCn1c2c(c(O)c(C(=O)NCCCN(CC)CC)c1=O)CCCC2	7%	-1.0	-35	-7	1
CN(C)S(=O)(=O)c1cc(NC(=O)CN2C(=O)NC3(CCCc4ccccc43)C2=O)ccc1Cl (centres undefined)	5%	-0.2	-2	5	-1
O=C(Nc1ccccn1)C(NS(=O)(=O)c1cccc2nsnc12)c1ccccc1 (centres undefined)	2%	1.6	-30	1	-6
O=C(COc1ccc(Cl)cc1)Nc1ccc(N2CCN(C(=O)c3ccco3)CC2)cc1	-1%	1.2	-24	6	-4

High-throughput results (PubChem BioAssay)

These rows are one share of the data; count on the stated rates, not on these rows.
